# HCMV NEC inh: cytomegalovirus nuclear egress complex inhibition; HTRF UL50-UL53 interaction, normalized percent inhibition; inhibition, % (concentration not given with the values); 190,000 tested, 0.15% active; AID 1918969;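 active = both replicates at 50% or more, plus weaker picks with an unusually low signal ratio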;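 note: stock transfer was 100 nL into about 20 µL; 0% = negative control wells and 100% = wells with untagged competitor protein; inactives centre near -12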
# Sa growth inh: inhibitors of Staphylococcus aureus growth at 42 °C | S. aureus RN4220 growth, OD600, 20 h; active compounds read low | relative growth, % (test concentration not listed) | 170,000 tested, 0.53% active;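 active = growth at 42 °C up to 50% and 20 or more points under that at 30 °C, or under 10% at both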;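 note: 300 nL library stock went into each well; scaled to the means of positive and negative controls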
# GIV-Gai inh: inhibitors of GIV GBA-motif binding to rat Galpha-i3 | P08753 | Galpha-i3/FITC-GIV peptide fluorescence polarization, 90 min; active compounds read low; scaled: aluminum fluoride 0%, vehicle 100% | percent of control (FP), % (test concentration not listed) | 210,000 tested, 0.42% active | AID 1224905;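 active = replicate mean at 85% of control or lower, very high polarization wells dropped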;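 note: lower values mean more displacement of the GIV peptide from Galpha-i3; wells of about 15 µL received 100 nL stock; the first replicate is given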
# Target sequence (P08753 whole entry, looked up): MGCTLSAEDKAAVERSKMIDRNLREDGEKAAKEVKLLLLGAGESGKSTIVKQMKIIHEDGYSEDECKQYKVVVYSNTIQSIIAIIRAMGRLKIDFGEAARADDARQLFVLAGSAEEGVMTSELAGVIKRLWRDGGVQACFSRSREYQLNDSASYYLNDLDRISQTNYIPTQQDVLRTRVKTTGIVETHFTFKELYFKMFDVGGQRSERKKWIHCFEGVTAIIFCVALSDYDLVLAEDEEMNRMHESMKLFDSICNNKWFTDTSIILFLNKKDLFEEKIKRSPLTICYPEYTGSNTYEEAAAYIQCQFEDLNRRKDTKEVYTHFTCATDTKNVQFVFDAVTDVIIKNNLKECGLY
# Sa growth inh second temp: second read-out of Sa growth inh, no call of its own (marks repeat the call); relative growth, %; measured here: growth at 30 °C;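 optical density after 20 h as mean of two plates; 100% = untreated growth and lower means inhibition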
# Starred values were filed as active, the others as inactive; · = no result given; & = joins results of further samples.
SMILES,HCMV NEC inh,Sa growth inh,Sa growth inh second temp,GIV-Gai inh
COc1ccc(OC)c(S(=O)(=O)N2CCn3cccc3C2c2ccc(Cl)cc2Cl)c1 (stereo not given),-29.2,92.0,92.6,99.6
CCc1ccnc(NS(=O)(=O)c2ccc3c(c2)CCO3)c1,-1.1,93.4,86.8,103.4
O=S(=O)(Nc1ccc2c(c1)N(S(=O)(=O)c1cccs1)CCC2)c1cccs1,-22.7,104.0,67.8,111.9
O=C(CSc1nncs1)c1cccs1,-26.3,91.7,83.1,·
CC(=O)Nc1ccc(S(=O)(=O)NCC2CCC(C(=O)NCCc3ccc(C)cc3)CC2)cc1 (stereo not given),·,98.3,101.0,108.9
COC(=O)CSc1nnc(COc2cccc3ccccc23)o1,-13.5,136.2,101.2,108.2
CC1(C)Cc2ccccc2C(NN=C2CCCCC2)=N1,-1.2,96.6,76.7,104.5
Cc1ccc(-c2cc(Nc3ccccc3Cl)nc(C)n2)cc1,19.1,·,·,100.7
O=C1c2ccccc2C(=O)N1CNc1ccccc1C1CC1,-38.3,96.6,93.2,101.4
CCOC(=O)c1c(C)[nH]c(C)c1S(=O)(=O)N1CCC(C(=O)Nc2ccc3c(c2)OCO3)CC1,-19.9,·,·,106.6
Cc1ccc2[nH]c(=O)c(CNCCCN(C)C)cc2c1,-19.8,109.8,103.3,102.6
CC(C)Cn1c(O)c(C2=c3ccccc3=NC2=O)c2ccccc21,-15.7,109.2,43.8,·
O=S(=O)(Nc1ccc(Cl)cc1)c1ccccc1,-17.2,·,·,104.2
CC(NC(=O)COc1cccc(Cl)c1)c1ccccc1 (stereo not given),1.9,106.1,91.8,96.5
CCCNC(=O)Cn1c(=O)cc(C)c2c(C)nn(-c3cccc(F)c3)c21,·,87.6,87.5,97.6
Nc1snnc1-c1ccc(Cl)cc1,-8.5,99.6,80.2,104.9
COc1cccc(-c2nc3cc(C)ccc3o2)c1,4.9,107.1,102.6,104.8
O=C(O)c1ccc2c(c1)sc1nc(-c3ccc(F)cc3)cn12,-0.5,72.5,74.5,100.8
COCCn1cc(C(=O)c2ccccc2O)cc(C#N)c1=O,-26.9,99.7,99.7,·
COc1ccc(CC(=O)Nc2ccc3nc(NC(=O)c4ccccc4)sc3c2)cc1,-5.6,·,·,104.4
Cc1cc(NCc2ccccc2)c2nncn2n1,-19.7,80.3,62.3,101.9
Cc1cccc(NC(=O)C2CCN(S(=O)(=O)c3ccc4c(c3)C(C)(C)C(=O)N4C)CC2)c1C,-6.5,·,·,109.3
Cc1ccc(-n2nnc3c(=O)n(CC(=O)N4CC(C)OC(C)C4)cnc32)cc1Cl (stereo not given),-40.1,84.5,85.2,103.8
N#Cc1cnc(N2CCCCC2)[nH]c1=O,-21.6,83.5,84.1,96.0
Cc1ccc(CN2CCc3[nH]c(=O)[nH]c(=O)c3C2)cc1,·,109.0,93.3,109.4
CCOC(=O)c1cc(-c2ccc(C)cc2)n(CCC(=O)Nc2cc(Cl)ccc2C)c1C,-34.1,91.1,92.7,98.5
CNc1cnn(C23CC4CC(CC(CC(=O)O)(C4)C2)C3)c(=O)c1Cl,-9.6,103.2,94.9,102.9
NC(=O)C1CCN(CC(=O)NC(c2ccccc2)c2ccccc2)CC1,-5.1,99.1,87.7,·
COc1cc(OC)nc(NC(=O)COC(=O)c2ccc(S(=O)(=O)Nc3ccc(C)cc3)cc2)n1,-14.3,103.2,92.1,·
O=C(Cc1csc(Nc2nc(=S)[nH]c3ccccc23)n1)N1CCN(c2cccc(Cl)c2)CC1,·,110.9,92.6,106.6
COC(=O)c1cc2sccc2n1Cc1ccc(F)cc1Cl,-10.9,117.0,102.3,102.5
CC(C)CCNC(=O)Cc1cccs1,-8.9,114.7,91.4,·
Cc1cc(NCC2CCCO2)n2nc(-c3ccccc3)c(C)c2n1 (stereo not given),6.4,·,·,106.0
COc1ccccc1-c1cc2nc(C)cc(C)n2n1,-3.7,93.3,97.0,106.3
CCN(C(=O)c1ccco1)c1nnc(Cn2nnc3ccccc32)s1,-24.5,91.4,76.7,102.2
COc1cc(Br)cc(C=Nc2cc(C)on2)c1O,-14.4,84.6,94.9,99.0
S=c1[nH]c2ccc(Cl)cc2[nH]1,-9.9,90.8,87.2,100.6
COc1cccc(NC(=O)CSc2cc(=O)n(C)c3ccc(Cl)cc23)c1,-21.7,104.3,86.5,102.8
Cc1cc(OCC(=O)OC(C)C(N)=O)c(C(C)C)cc1Cl (stereo not given),-20.7,130.6,95.4,·
CCN1C(C(=O)c2ccccc2)=C(NC(=O)c2ccc(Cl)cc2)c2ccccc2S1(=O)=O,-1.8,106.4,90.8,104.3
Cc1ccccc1Cn1c(=N)n(CCO)c2ccccc21,-31.1,88.4,80.7,100.7
CCSc1ncc(Cl)c(C(=O)Nc2nc3ccc(OC)cc3s2)n1,13.1,81.8,93.8,107.7
Cc1cc2nc(Oc3ccc(S(=O)(=O)N4CCOCC4)cc3)c3ccccc3n2n1,-4.7,91.5,90.7,·
CCSc1nc2c(c(=O)n1CC)SC(C)C2 (stereo not given),-27.8,76.8,83.5,94.4
COc1ccc(CNC(=O)c2cccc(N3CCCC3=O)c2)cc1,-18.5,96.5,90.7,107.9
COc1ccc(-c2c3c(=O)n(C)c(=O)n(C)c3c3n2-c2ccccc2NC3c2ccc(OC)cc2)cc1 (stereo not given),-13.7,119.1,87.2,99.7
COc1ccc(Cn2nnc3c(C)nnc(N4CCOCC4)c32)cc1,-17.7,90.1,86.2,99.0
CCCCOC(=O)c1ccc(NC2=NS(=O)(=O)c3ccccc32)cc1,-21.7,112.3,93.6,107.0
Cc1ccc(OCC(=O)Nc2nc(-c3ccc(Br)cc3)ns2)cc1C,8.1,88.8,85.8,99.9
COc1ccc(-c2nc(Nc3ccc(F)cc3)c3ccccc3n2)cc1,-29.6,·,·,105.0
# (next part)
SMILES,HCMV NEC inh,Sa growth inh,Sa growth inh second temp,GIV-Gai inh
CCOC(=O)c1c(NC(=O)c2ccco2)sc2c1CC(C)(C)NC2(C)C,-11.7,93.8,84.2,100.3
COCCn1ccc2c(OCC(=O)Nc3cccc(NC(C)=O)c3)cccc2c1=O,-11.0,91.1,88.2,103.9
O=C(CSc1nccn2nc(-c3ccccc3)cc12)NC1CCCC1,-4.4,·,·,102.7
COC(=O)c1ccc2c(c1)sc1nc(-c3ccc(Cl)cc3)cn12,·,91.9,89.3,107.4
CCc1c(C)sc2c1CCN(CC(=O)Nc1ccccc1F)C2c1ccccc1 (stereo not given),-7.0,·,·,100.3
OC(c1ccc2c(c1)OCO2)c1cccs1 (stereo not given),3.1,97.2,100.3,·
CCN1CCN(C(=O)C2CCN(S(=O)(=O)c3ccc4c(c3)nc(C)n4C3CCCC3)CC2)CC1,·,115.7,90.6,107.1
O=C1ON(c2ccccc2)C(=O)/C1=C/c1ccccc1,-0.3,113.4,95.8,100.2
CCOc1ccccc1OC(=O)Cc1cc(OC)c(OC)c(OC)c1,20.4,117.9,97.1,·
CCCNc1ncnc2oc(C)c(C(=O)OCC)c12,5.9,·,·,98.1
CCOC(=O)c1cc(-c2ccc(OC)c(S(=O)(=O)NC3CCN(Cc4ccccc4)CC3)c2)on1,-7.3,·,·,106.2
CC1(C(=O)NCc2ccc3c(c2)OCO3)CCN(C(=O)COc2ccc(F)cc2)CC1,-23.6,·,·,99.5
CC1(C)CC(NC(=O)COc2ccc(C#N)cc2)CC(C)(C)N1,-9.8,95.4,92.0,·
CCOc1ccc(NC(=O)NCCCn2c(C)nc3cc(C)c(C)cc32)cc1,-4.2,116.6,119.0,100.3
Nc1cccc2c(-c3ccccc3)ccnc12,-30.9,91.3,69.1,105.0
CN1CCN(c2cc(C(=O)O)c3cc(NS(=O)(=O)c4cc(F)ccc4F)ccc3n2)CC1,-38.8,·,·,100.6
CC(=O)N1C2=C(CCCC2)C(=O)NC12CCCCC2,·,100.0,82.3,99.2
O=C(Cn1cc(C(=O)c2ccco2)c2ccccc21)Nc1ccccc1C(F)(F)F,-15.2,83.3,83.9,97.9
Cc1ccccc1CC1SC(=Nc2ccccc2)NC1=O (stereo not given),-15.3,·,·,102.5
COc1ccc(-c2noc(CCC(=O)O)n2)cc1OC,-28.8&-19.0,89.9,86.5,103.0

# One compound at a time, as listed above. Values in the order: HCMV NEC inh | Sa growth inh | Sa growth inh second temp | GIV-Gai inh
# `COC(=O)c1cc2sccc2n1Cc1ccc(F)cc1Cl` reads -10.9 | 117.0 | 102.3 | 102.5
# `Cc1cc(NCC2CCCO2)n2nc(-c3ccccc3)c(C)c2n1` (stereo not given) reads 6.4 | · | · | 106.0
# `Cc1cccc(NC(=O)C2CCN(S(=O)(=O)c3ccc4c(c3)C(C)(C)C(=O)N4C)CC2)c1C` reads -6.5 | · | · | 109.3

# Following part
SMILES,HCMV NEC inh,Sa growth inh,Sa growth inh second temp,GIV-Gai inh
CN(C)S(=O)(=O)c1cc(S(=O)(=O)N(C)C)c(Cl)s1,9.9,110.5,98.3,99.8
CC(C)(C)c1cc(C(=O)Nc2ccc(Cl)cc2)n(Cc2ccccc2)n1,13.6,68.8,99.8,105.1
CCSc1cnn(C)c(=O)c1SCC,-71.9,98.8,101.3,104.5
Cc1ccc(C2=CC(c3ccc(F)cc3)n3nc(NS(=O)(=O)c4ccc(C)cc4)nc3N2)cc1 (stereo not given),-32.5,·,·,114.2
c1csc(-c2nc(-n3ccnc3)c3ccccc3n2)c1,-72.0,101.3,93.6,·
Cc1cc(NC(=O)CSc2nc(-c3ccco3)nc3c2c(=O)n(C)c(=O)n3C)no1,9.5,91.0,96.4,104.8
FC(F)(F)c1ccc(C2=Nc3ccccc3NC(c3cccs3)=N2)cc1,9.2,96.8,95.3,103.5
CC1=NN(C(=O)c2ccc(N/C(C)=C/C(=O)C(F)(F)F)cc2)C(O)(C(F)(F)F)C1 (stereo not given),-11.9,·,·,105.3
O=C(c1cccn1-c1nnc(N2CCCCC2)s1)N1CCN(c2ccc(Cl)cc2)CC1,·,67.3,36.6,98.2
CCC(C)NC(=O)CSc1nc2cc3c(cc2c(=O)n1Cc1ccc(C(=O)NCCc2ccc(OC)c(OC)c2)cc1)OCO3 (stereo not given),·,114.9,94.8,111.8
Cc1cc2oc(C(=O)Nc3ccc(S(=O)(=O)Nc4ncccn4)cc3)cc(=O)c2cc1C,1.8,101.3,91.6,97.9
CCN(CC)CCCNC(=O)c1cc(-c2ccc(OC)c(OC)c2)on1,-17.4,90.2,93.1,102.7
CC1Cc2ccccc2N1S(=O)(=O)c1ccc2[nH]c(=O)c(=O)[nH]c2c1 (stereo not given),·,96.1,76.7,108.6
Cn1c(SCC(=O)Nc2ccc3c(c2)OCO3)nc2c(-c3ccccc3)csc2c1=O,-12.6,·,·,93.4
COc1ccc(NCc2cc3ccc(OC)cc3n(CC(=O)Nc3ccc(C)c(C)c3)c2=O)cc1,·,74.7,86.2,105.6
CC(C)c1ccc(-c2cc(-c3nc(-c4ccc5c(c4)OCO5)no3)[nH]n2)cc1,-20.8,·,·,104.6
COC(=O)c1c(F)c(F)c(Oc2ccc(NC(C)=O)cc2)c(F)c1N1CCCCC1,-13.6,104.4,85.2,106.4
CC(C)N1C(=O)c2ccccc2C1C(=O)NCCc1ccccc1 (stereo not given),-23.1,99.0,87.3,109.9
Oc1ccc2ccccc2c1CN1CCN(C/C=C/c2ccccc2)CC1,-2.2,100.4,102.2,97.3
COC(=O)c1cn(CC(=O)N2c3ccccc3CC2C)c2ccccc12 (stereo not given),-30.6,77.4,83.6,101.1

# 6 entries already listed, arranged by SMILES length, rising:
SMILES,HCMV NEC inh,Sa growth inh,Sa growth inh second temp,GIV-Gai inh
CC(C)N1C(=O)c2ccccc2C1C(=O)NCCc1ccccc1 (stereo not given),-23.1,99.0,87.3,109.9
Oc1ccc2ccccc2c1CN1CCN(C/C=C/c2ccccc2)CC1,-2.2,100.4,102.2,97.3
CC1Cc2ccccc2N1S(=O)(=O)c1ccc2[nH]c(=O)c(=O)[nH]c2c1 (stereo not given),·,96.1,76.7,108.6
COC(=O)c1c(F)c(F)c(Oc2ccc(NC(C)=O)cc2)c(F)c1N1CCCCC1,-13.6,104.4,85.2,106.4
CC(C)c1ccc(-c2cc(-c3nc(-c4ccc5c(c4)OCO5)no3)[nH]n2)cc1,-20.8,·,·,104.6
COc1ccc(NCc2cc3ccc(OC)cc3n(CC(=O)Nc3ccc(C)c(C)c3)c2=O)cc1,·,74.7,86.2,105.6

# Carrying on.
SMILES,HCMV NEC inh,Sa growth inh,Sa growth inh second temp,GIV-Gai inh
CC(Sc1nnc(COc2ccccc2F)n1-c1ccccc1)C(=O)NC(N)=O (stereo not given),-4.9,106.8,97.4,·
CC1(C)CC(=O)C2=C(C1)NC(=O)CC2c1ccsc1 (stereo not given),-4.1,·,·,103.0
O=C(CCCc1nc(-c2ccncc2)no1)Nc1cccnc1,9.0,·,·,107.2
COc1ccc(S(=O)(=O)N2CC=C(c3c(C)n(CC(=O)N4CCCC4)c4ccccc34)CC2)cc1OC,-19.2,105.7,90.0,108.6
O=C(COc1ccc(Cl)cc1)Nc1sc2c(c1C(=O)Nc1cccc(Cl)c1)CCCC2,-1.6,100.2,96.9,103.0
O=C(/C=N/O)Nc1cc(C(F)(F)F)cc(C(F)(F)F)c1,-37.5,76.7,67.5,103.3
COc1ccc(-n2cc(C(=O)NCCCN3CCCCC3)c3ccccc3c2=O)cc1,-21.7,80.8,83.5,98.8
O=C1c2ccccc2C(=O)N1CNc1ccccc1,-32.1,68.9,87.0,·

# Bioassay records: PubChem, ICCB-Longwood Screening Facility, Harvard Medical School

# Random draw from the library (roughly 0.83% active in at least one column).
